Kir21 block: inhibitors of mouse Kir2.1 inward-rectifier potassium channel; P35561; HEK293-Kir2.1, FluxOR thallium flux fluorescence; stronger effect = lower value; B-score at 10 µM; 0.85% of 310,000 active;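 active = fluorescence ratio B-score at or below minus 3 SD of library scores, with starting-brightness B-score within 2 SD, cut at about -4.2 in these data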;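 note: channel flux triggered by added potassium and thallium sulfate stimulus; B-score of peak minus minimum fluorescence over baseline after thallium stimulus; more negative B-score means stronger Kir2.1 block with less thallium influx; some compounds called inactive have numbers as strong as hits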
Target sequence (P35561 whole entry, looked up): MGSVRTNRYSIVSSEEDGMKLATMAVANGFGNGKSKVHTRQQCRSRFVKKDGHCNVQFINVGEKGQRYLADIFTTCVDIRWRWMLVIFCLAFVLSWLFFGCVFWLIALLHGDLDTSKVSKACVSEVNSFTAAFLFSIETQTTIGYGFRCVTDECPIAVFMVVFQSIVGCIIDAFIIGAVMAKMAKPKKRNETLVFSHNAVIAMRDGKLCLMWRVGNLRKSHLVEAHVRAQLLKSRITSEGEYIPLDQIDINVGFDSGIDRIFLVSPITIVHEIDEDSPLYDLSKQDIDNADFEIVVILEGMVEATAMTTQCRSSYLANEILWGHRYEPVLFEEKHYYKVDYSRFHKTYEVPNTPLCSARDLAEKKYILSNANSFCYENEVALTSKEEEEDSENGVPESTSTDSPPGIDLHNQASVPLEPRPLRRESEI
Starred values were filed as active, the others as inactive. A portion of the library, and most or all hits are left out here.

Kir21 block	molecule
-1.8	O=c1[nH]nc(SCc2nnc(-c3cccc(Cl)c3)o2)n1C1CCCCC1
0.85	O=C(O)CCc1ccc(-c2ccc(Cl)cc2)n1CCC(=O)O
-2.3	CC1(C)c2[nH]c3ccccc3c2C[C@@H]2C(=O)N(Cc3ccc(F)cc3)C(=O)N21
-1	FC(F)(F)c1ccc(/C=N/n2c(COc3ccccc3)n[nH]c2=S)cc1
1.5	Cc1cccc(C(=O)OCC(=O)NC(C)CCc2ccccc2)c1 (stereo not given)
-0.76	Nc1ccc(S(=O)(=O)NNC(=O)C(=O)NNc2ccccn2)cc1
0.14	OCCC1CN(Cc2cccc3c2OCO3)CCN1C1CCCCC1 (stereo not given)
-0.38	O=C(N/N=C/c1ccccn1)C12CC3CC(CC(C3)C1)C2
0.59	CCCCCNC(=O)c1cccnc1SCC(=O)Nc1ccccc1OC
0.63	CC(C)c1cccc(C(C)C)c1OCCCCN1CCCC1
-0.58	COc1ccc2[nH]c(C(=O)NCCc3ccccc3)cc2c1
-0.01	COc1ccc(CN2CCNC(=O)C2CC(=O)NCC2CCOCC2)c(F)c1 (stereo not given)
-0.01	CCOC(=O)c1c(N)sc2c(O)c(Br)ccc12
1.9	CCOc1ccc(/C=C/C(=O)N2CCOCC2)cc1OC
0.96	Cc1ccc(/C=C2/SC(=S)N(CCCC(=O)Nc3ccc(O)cc3)C2=O)cc1
0.05	N#CC1=C(N)N(c2ccccc2)C2=C(C(=O)CCC2)C1c1cccs1 (stereo not given)
-0.62	Cc1ccccc1-c1ccc(=O)n(CC(=O)Nc2ccc(-n3cnnn3)cc2)n1
0	Cc1cccc(NC(=O)CSc2nnc(-c3ccncc3)n2C)c1
0.09	O=C(/C=C/c1ccco1)Nc1ccc2nn(-c3ccccc3)nc2c1
0.3	CCC(CC)C(=O)NCCNC(=O)C(CC)CC
-0.79	O=C(Nc1nc2ccccc2[nH]1)c1ccccc1F
-1	COc1ccc(CCNC(=O)C2CCCN2S(=O)(=O)c2ccc(F)cc2)cc1OC (stereo not given)
0.01	O=C(NC1(C(F)(F)F)C(=O)Nc2c1c(=O)[nH]c(=O)n2Cc1ccco1)C1CC1 (stereo not given)
-2.8	Cc1cccc(NC(=S)N(Cc2ccc(Cl)cc2)Cc2ccc(C(=O)O)cc2)c1
0.78	COc1ccc(Cn2c(CCC(=O)Nc3ccccc3OC)nc3cccnc32)cc1
-1.1	CC(=O)Nc1ccc(NC(=O)CCCSc2nc3ccccc3[nH]2)cc1
1.9	O=C(COC(=O)CNC(=O)c1ccco1)Nc1ccc(F)cc1
-1.6	CCc1ccc(OCC(=O)NC(NC(=S)Nc2ccccc2OC)C(Cl)(Cl)Cl)cc1 (stereo not given)
2.2	Cc1ccc(C(=O)N/N=C/C=C/c2ccccc2)cc1
-1	COC(=O)c1cn(Cc2ccccn2)c(=O)c2ccccc12
-1.4	CCC(C)(C)NC(=O)c1cc(C(=O)OC)cc([N+](=O)[O-])c1
-1.9	Cc1cc(N2C(=O)C3C4CCC(C4)C3C2=O)no1 (stereo not given)
-0.29	Cc1cc2c(cc1S(=O)(=O)NCc1ccccc1)NC(=O)CO2
0.77	CCN(CC)CCn1c2c(c(SCC(=O)Nc3nccs3)nc1=O)CCCC2
-0.67	COc1ccc2nc(SCC(=O)NN)cc(C)c2c1
0.88	Cc1ccc2c(c1)N(CC(=O)N1CCN(c3nc4ccccc4s3)CC1)C(=O)C(C)O2 (stereo not given)
0.11	Cc1ccc2cccc(NC(=S)NC(=O)c3c(Br)cnn3C)c2n1
1.6	Cc1ccc(C)c(NC(=O)CN(C)C(=O)c2ccc(Cl)nc2)c1
0.97	COc1ccc(/C=N/n2c(-c3n[nH]c4c3CCC4)n[nH]c2=S)cc1OC
0.26	COc1ccc(C(=O)Nc2cccc(C(=O)N3CCCC3)c2)cc1
0.38	COc1ccc(C(=O)OCC(=O)Nc2ccc(Cl)cn2)cc1
-0.13	Cc1ccc(NC(=O)CCCNC(=O)c2ccc(Cl)cc2)nc1
-0.31	O=C1CCCN1CCCNS(=O)(=O)c1ccc(Cl)c(C(=O)N2CCOCC2)c1
0.61	O=C(CSc1nncn1-c1cccnc1)Nc1cccc(C(F)(F)F)c1
0.97	Clc1ncccc1OCc1ccccc1
-0.28	Cc1ccc(CNC(=O)CSc2nc(C)cc(C)c2C#N)cc1
-0.57	CN(C)C(=S)Nc1ccc2ccccc2c1
-0.11	C/C(=N\NC(=O)c1cc(O)cc(O)c1)c1ccc(NC(=O)Cc2ccccc2)cc1
0.35	CC(=O)c1nc2ccccc2n1S(=O)(=O)c1ccc(Cl)cc1
-0.42	O=C(CNC(=O)c1ccccc1)OCC(=O)c1cccs1
-0.16	O=C(CCc1nnc2n(Cc3ccc(Cl)cc3)c(=O)c3ccccc3n12)NCCCN1CCOCC1
0.71	O=C(NC1CCCCC1)C1CCN(C(=O)c2ccccc2Cl)CC1
-0.33	NC(=O)CSc1nnc2sc3ccccc3n12
0.32	CCN(CC(=O)Nc1cc(C)nn1-c1nc(C)cc(C)n1)Cc1ccccc1
0.3	Cn1c(CC(=O)Nc2ccccc2Cl)nnc1SCC(=O)NC1CCCCC1
-1.1	CCCNC(=S)N1CC2(C)CN(C(=O)C(=O)OCC)CC(C)(C1)C2=O
-0.02	c1ccc(-c2ccc(SCc3cccnc3)nn2)nc1
0.14	COc1ccccc1CNC(=O)COC(=O)Cc1ccc(Cl)cc1
-3.4	CCn1c(CSCc2ccc(Cl)cc2)n[nH]c1=S
-0.41	COCCNC(=O)c1cn(Cc2c(F)cccc2Cl)nn1

(more compounds)
Kir21 block	molecule
0.1	COCCNC(=O)c1cc(C(=O)CC(C)C)c[nH]1
2.6	O=C(NC(Cc1ccccc1)c1nc2ccccc2[nH]1)c1ccc(Cl)c([N+](=O)[O-])c1 (stereo not given)
0.44	CC(=O)Nc1ccc(NC(=O)CSc2nc(N)c(NC(=O)c3ccco3)c(=O)[nH]2)cc1
-0.05	Cc1ccc(C)c(C(=O)Cn2ncc(Cl)c(Cl)c2=O)c1
0.04	CN(c1ccccc1)S(=O)(=O)c1cccc(NC(=O)CN2CCc3ccccc3C2)c1
2	N#C/C(C(=O)Oc1ccccc1)=C1\C=CC=CN1
0.95	Cc1cc(C(=O)CSc2cccc[n+]2[O-])c(C)n1-c1ccc(OC(F)F)cc1
1.1	CC(C)COc1ccc(CNC(=S)N/N=C/c2ccc([N+](=O)[O-])cc2)cc1
-0.77	CCCc1ccc(OCc2ccc(C(=O)N3CCSCC3)o2)cc1
1.7	O=c1c(CN2CCN(Cc3ccccc3)CC2)coc2ccc(Cl)cc12
-0.35	CCOC(=O)c1sc(NC(=O)c2cc(-c3cccc(O)c3)on2)c(C(=O)OCC)c1C
-0.29	Cc1cc(C(=O)Cn2nnc3ccccc3c2=O)c(C)n1-c1c(C)n(C)n(-c2ccccc2)c1=O
-1.5	Cc1c(C(=O)NCC2CCCO2)oc2ccc(Br)cc12 (stereo not given)
-1.4	Cc1ccc(S(=O)(=O)N2CCOC2CNC(=O)C(=O)NCCc2ccccc2)cc1 (stereo not given)
-1	NC(=O)c1cc(NC(=O)CCCc2nc3ccccc3s2)cc(C(N)=O)c1
-1.2	COc1ccc(S(=O)(=O)c2c[nH]c(=S)[nH]c2=O)cc1Cl
0.89	CN1C(=O)/C(=C/c2cn(CC(=O)NCc3ccco3)c3ccccc23)NC1=S
2.9	COC(=O)c1c(NC(=O)c2ccco2)sc(C(=O)Nc2ccc(F)cc2)c1C
1.3	O=c1nc(Nc2ccc(OCc3ccccc3)cc2)sc2ncccc12
1.7	CC(C)NC(=O)c1ccccc1NC(=O)C1CCCO1 (stereo not given)
-0.83	COc1cc(OC)nc(NC(=O)COC(=O)c2cccc(Cl)c2)n1
-0.1	Cc1cc(C)n(CCNS(=O)(=O)c2ccc(C)c(C)c2)n1
1.4	Nc1nnc(CC(=O)N/N=C/c2ccc(-c3ccccc3)o2)s1
1.5	CCCOc1ccc2[nH]c(C(=O)N/N=C/c3cc(OC)c(OC)c(OC)c3)cc2c1
-1.7	CC(=O)NN1C(=O)c2ccccc2NC1c1ccc(N(C)C)cc1 (stereo not given)
0.14	CCNC(=S)Nc1ccc(C)c(S(=O)(=O)Nc2ccccc2OC)c1
1.5	O=C(NCC1CCCN(Cc2cccc(F)c2)C1)c1cccc2ccccc12 (stereo not given)
-0.12	COc1nc(OC)nc(N2CCC(C(=O)NCc3cccs3)CC2)n1
-0.54	CN(/C(=N/S(=O)(=O)c1cccs1)c1ccccc1)c1ccccc1
0.16	CC(=O)N1c2ccc(S(=O)(=O)N3CCCC(C(=O)N4CCC(C)CC4)C3)cc2CC1C (stereo not given)
-0.23	CCOC(=O)c1[nH]c(C)c(C(=O)/C=C/c2ccc(C(=O)O)cc2)c1C
0.88	CN(C(=O)C1CCN(S(=O)(=O)c2cccs2)CC1)c1ccccc1
-1.3	O=C(Nc1ccc(O)c(C(=O)O)c1)c1cccc(NC(=O)c2ccco2)c1
0.43	COc1ccc(C2CC3CC(c4ccccc4)N2O3)cc1 (stereo not given)
-1.5	S=C1NCCC12C(=S)Nc1ccccc12 (stereo not given)
0.14	CCN(CC)S(=O)(=O)c1cc(NC(=O)CCNC(=O)c2ccco2)ccc1C
-1.6	CN1CCN(C(=O)c2cc3sc4ccccc4c3s2)CC1
-0.45	CCN(C(=O)CSc1nc2ccccc2n1CC)C1CCS(=O)(=O)C1 (stereo not given)
-0.04	O=C(CSc1nc2ccccc2o1)NC(=O)NCc1ccco1
-0.47	CN1CCc2nc(NC(=O)COc3ccc(C#N)cc3)sc2C1
0.01	COC(=O)CN(C)C(=O)c1cccc(OC2CCN(S(=O)(=O)N(C)C)CC2)c1
-1.3	CCOC(=O)c1oc2ccc(Br)cc2c1CSc1nnc(C)s1
-3.6	Cc1occc1-c1nnc(SCC(=O)Nc2ccccc2)n1CCc1ccccc1
-2	Cc1ccc(CN2CCN(Cc3ccc(C)s3)CC2CCO)cc1 (stereo not given)
-0.3	COc1cccc(C(=O)/C=C/Nc2ccc(NC(C)=O)cc2)c1
1.3	COC(=O)CSc1ccc(S(=O)(=O)N2CCOCC2)cc1[N+](=O)[O-]
-0.01	Cc1ccccc1C(=O)OCc1nnc(-c2ccc(Cl)cc2)o1
-0.8	Cc1ccc(CNC(=O)CSc2nc(N3CCCCC3)nc(N3CCCCC3)n2)cc1
1.3	CC1CCC/C(=C(\C#N)c2nc(-c3cc4ccccc4oc3=O)cs2)C1 (stereo not given)
0.34	O=C1CC(N2CCN(c3cccc(C(F)(F)F)c3)CC2)C(=O)N1c1ccccc1 (stereo not given)
0.15	O=C(c1ccc(CS(=O)c2cccc(Cl)c2)o1)N1CCN(C2CCCCC2)CC1 (stereo not given)
-0.61	Cc1ccc(NC(=O)CCC(=O)N/N=C/c2cccs2)cc1C
0.02	Cc1ccc(C)c(S(=O)(=O)N2CCN(CC(=O)Nc3cc(C)on3)CC2)c1
-0.15	COC(=O)c1cccc(C23CC4(C2)[C@H](CN(Cc2ccc(-c5ccccc5)cc2)[C@@H]4c2ccccc2)C3c2ccc(Cl)nc2)c1 (stereo not given in full)
-0.54	O=C(Nc1ccc(Cl)cc1)c1ccco1
0.85	Cc1cccc(CCN(CC(=O)NC(C)(C)C)C(=O)c2csnn2)c1
-5	Cc1nc(N2CCN(Cc3ccccc3)CC2)nc2c1C(=O)CCC2
0.6	COc1ccc(C(=O)O/N=C(/C)c2cccs2)cc1
-1.6	CCCc1[nH]nc2c1C(c1ccc(OC(=O)c3ccco3)cc1)C(C#N)=C(N)O2 (stereo not given)
-0.68	COc1ccc(OCCCN(C)Cc2ccccc2)cc1

Next section.
Kir21 block	molecule
-1.2	Cc1cc(NC(=O)c2ccccc2F)n(C(C)(C)C)n1
1.8	Cc1c(C(=O)N2CCOCC2)cc(C(C)(C)C)n1-c1ccccc1
-0.03	COc1ccc(NC(=O)CSc2nc3nc(C)cc(C)n3n2)cc1
-2.9	C/C(=N\Nc1ccc(C(=O)O)cc1)c1nc2ccccc2n1C
-1.9	CCOC(=O)C1(Cc2ccccc2)CCN(Cc2cn(CC(=O)OC)c3ccccc23)CC1
-0.48	COc1ccc(C(=O)NCC(=O)N/N=C/c2cccnc2)cc1
0.07	O=C(O)c1ccc(CNCc2ccc(Cl)cc2)cc1
-0.01	COc1cccc(-n2nnc3c(=O)n(Cc4ccc(F)cc4)cnc32)c1
-0.78	COc1ccc(CCNC(=O)Cn2c(=O)n(-c3cc(F)ccc3F)c(=O)c3sccc32)cc1OC
-0.14	CCc1cc(=O)oc2cc(OCC(=O)NCCCn3ccnc3)ccc12
-0.49	S=C(NCc1cccs1)Nc1cccc2ccccc12

Assay outcomes (PubChem BioAssay)
